GIV Gai3 FP: inhibitors of GIV peptide binding to Galpha-i3, primary screen, biochemical, fluorescence polarization, FITC-GIV GBA peptide, rat Galphai3; percent of control (FP), % (test concentration not listed); AID 1224905, 2016; 0.42% of 210,000 active; Guanine nucleotide-binding protein G(i) subunit alpha-3 (Rattus norvegicus), P08753; 90 min; active compounds read low; scaled: aluminum fluoride 0%, vehicle 100%;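 active means replicate mean at 85% of control or lower, very high polarization wells dropped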;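 further: lower values mean more displacement of the GIV peptide from Galpha-i3; wells of about 15 µL received 100 nL stock; the first replicate is given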
Target sequence (P08753 whole entry, looked up): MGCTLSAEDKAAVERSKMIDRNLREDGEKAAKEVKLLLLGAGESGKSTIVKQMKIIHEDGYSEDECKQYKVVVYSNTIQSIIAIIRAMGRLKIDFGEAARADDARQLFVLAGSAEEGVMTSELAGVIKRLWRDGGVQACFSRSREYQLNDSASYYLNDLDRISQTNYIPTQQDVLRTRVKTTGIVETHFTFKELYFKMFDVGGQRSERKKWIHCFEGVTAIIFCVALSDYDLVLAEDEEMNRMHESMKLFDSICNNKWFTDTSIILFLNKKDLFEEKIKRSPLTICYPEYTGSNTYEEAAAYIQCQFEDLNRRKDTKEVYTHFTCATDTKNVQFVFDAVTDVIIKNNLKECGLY
Sa growth 42C: S. aureus growth inhibition at 42 and 30 °C, primary screen, LtaS inhibitor project, RN4220, two temperatures; relative growth, % (concentration not given with the values); AID 720641, 2013; 0.53% of 170,000 active; OD600, 20 h, 42 °C; active compounds read low;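 active means growth at 42 °C up to 50% and 20 or more points under that at 30 °C, or under 10% at both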;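 further: 300 nL library stock went into each well; scaled to the means of positive and negative controls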
HCMV UL50-53 inh: inhibitors of HCMV UL50-UL53 interaction, biochemical, HTRF. normalized percent inhibition. inhibition, % (concentration not given with the values). 0.15% of 190,000 active. AID 1918969, 2023;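 active means both replicates at 50% or more, plus weaker picks with an unusually low signal ratio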;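 further: stock transfer was 100 nL into about 20 µL; 0% = negative control wells and 100% = wells with untagged competitor protein; inactives centre near -12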
Sa growth 42C second temp: further read-out of Sa growth 42C, marked with its call; relative growth, %; measured here: growth at 30 °C;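 optical density after 20 h as mean of two plates; 100% = untreated growth and lower means inhibition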
Active calls of the source: *; x = not tested or not shown; & = joins results of further samples.

Results follow in this order: GIV Gai3 FP	Sa growth 42C	Sa growth 42C second temp	HCMV UL50-53 inh
- CCCCc1c(C)nc2nc(N(Cc3ccc(Cl)cc3)C(=O)C(C)C)[nH]n2c1=O
→ 107	x	x	-2
- O=C(C(Cc1ccccc1)N1C(=O)C2C3C=CC(C3)C2C1=O)N1CCCCC1 (stereo unspecified)
→ 98	104	81	-11
- CC(C)c1nc(=S)c2cc(Br)cc(Br)c2[nH]1
→ x	93	85	-9
- O=C(C1CCN(c2nnc(-n3cccc3)s2)CC1)N1CCN(c2ncccn2)CC1
→ 100	x	x	-6
- O=C1CC(c2ccccc2)c2c(-c3ccc(Cl)cc3)nn(-c3ccccc3)c2N1 (stereo unspecified)
→ 104	x	x	-3
- CN(C)c1ccc(CNCCCn2ccnc2)cc1
→ 98	137	86	-6
- Cc1c(C#N)c(O)[nH]c(=O)c1N=Nc1ccc(S(N)(=O)=O)cc1
→ 107	85	88	-158
- CC(C)N=c1scc(-c2cccs2)n1/N=C/c1ccc(O)c(O)c1O
→ x	57	64	-5
- CN(C(=O)C1CC(c2ccc(F)cc2)=NO1)C1CCCCC1 (stereo unspecified)
→ 99	99	81	-2
- CC(C)CCNC(=O)C1(C)Cn2c(cc3ccccc32)C(=O)N1C1CC1 (stereo unspecified)
→ 104	x	x	-10
- O=C(O)Cc1nonc1NCNc1nonc1CC(=O)O
→ 94	99	122	-11
- Cc1ccc(OC(C)C(=O)Nc2ccc3c(c2)OCCO3)cc1 (stereo unspecified)
→ 101	100	80	-34
- O=C(N/N=C/C1=C(N2CCOCC2)C(=C\c2ccccc2)/CC1)c1ccccc1
→ x	121	90	-18
- CCCCCNC(=O)C1=C(c2ccccc2)c2cc(Cl)ccc2S(=O)(=O)N1C
→ 108	x	x	7
- CCOC(=O)c1ccc(NS(=O)(=O)c2ccc3c(c2)n(C)c(=O)n3C)cc1
→ 102	98	87	-19

More results.
Results follow in this order: GIV Gai3 FP	Sa growth 42C	Sa growth 42C second temp	HCMV UL50-53 inh
- CCCN(CCC)CCNC(=O)c1sc2nc3n(c(=O)c2c1C)CCCCC3
→ 95	88	93	-15
- CCOC(=O)CNC(=O)c1ccc(-c2nn(C)c(=O)c3ccccc23)cc1
→ 102	85	90	-21
- O=C1C2CC=C(Cl)CC2C(=O)N1CCN1CCN(CCN2C(=O)C3CC=C(Cl)CC3C2=O)CC1 (stereo unspecified)
→ 105	x	x	-22
- CCN(CC)S(=O)(=O)c1ccc(NC(=O)c2cc(-c3cccs3)nc3ccccc23)cc1
→ 100	103	88	x
- CCn1cc(Br)c(C(=O)NCc2ccco2)n1
→ 103	85	90	3
- O=C(O)CN1C(=O)c2cccnc2Sc2ccccc21
→ 108	125	86	-6
- CC(=O)N1CCc2cc(Br)c(S(=O)(=O)n3cc4c(=O)n(C)c(=O)n(C)c4n3)cc21
→ 106	x	x	-26
- Nc1c(C(=O)Nc2ccc(Cl)cc2)sc2nc3c(cc12)CCCCC3
→ 100	x	x	-16
- COC(=O)c1cc2occc2n1CC(=O)Nc1ccc(C(C)C)cc1
→ 102	106	90	-17
- CC(=O)c1ccc(N2C(=O)Nc3ccccc3S2(=O)=O)cc1
→ 112	92	98	x
- CCOC(NC(=O)c1ccccc1)(C(F)(F)F)C(F)(F)F
→ 99	114	86	36
- c1ccc2c(c1)nc(NC1CC1)c1nncn12
→ 106	101	83	3
- CCOc1ccc(NC(=O)CN2C(=O)C(C)(C)c3cc(S(=O)(=O)N4CCCC4)ccc32)cc1
→ 104	x	x	-37
- CC1Cc2ccccc2N1C(=O)Cn1ncc(Cl)c(Cl)c1=O (stereo unspecified)
→ x	91	93	-37
- Cn1c(=O)n(CCOc2ccc(Cl)cc2)c2ccccc21
→ 102	86	94	-1

Next section (7 carried over from the part before).
Results follow in this order: GIV Gai3 FP	Sa growth 42C	Sa growth 42C second temp	HCMV UL50-53 inh
- COC(=O)c1cc2occc2n1CC(=O)Nc1ccc(C(C)C)cc1
→ 102	106	90	-17
- CC(=O)c1ccc(N2C(=O)Nc3ccccc3S2(=O)=O)cc1
→ 112	92	98	x
- CCOC(NC(=O)c1ccccc1)(C(F)(F)F)C(F)(F)F
→ 99	114	86	36
- c1ccc2c(c1)nc(NC1CC1)c1nncn12
→ 106	101	83	3
- CCOc1ccc(NC(=O)CN2C(=O)C(C)(C)c3cc(S(=O)(=O)N4CCCC4)ccc32)cc1
→ 104	x	x	-37
- CC1Cc2ccccc2N1C(=O)Cn1ncc(Cl)c(Cl)c1=O (stereo unspecified)
→ x	91	93	-37
- Cn1c(=O)n(CCOc2ccc(Cl)cc2)c2ccccc21
→ 102	86	94	-1
- Cc1cccc(Nc2nc3nonc3nc2N2CCC(C)CC2)c1
→ 95	x	x	-22
- CCN(CC)C1=NC(Cc2ccccc2)C(=O)N1c1ccccc1OC (stereo unspecified)
→ 103	91	82	-28
- CN(Cc1c(F)cccc1Cl)C(=O)CN1CCN(c2ncccn2)CC1
→ x	82	94	-27
- CCOC(c1ccccc1)c1nc2ccccc2n1CC (stereo unspecified)
→ 105	126	98	-7
- COC(=O)c1cc2oc(C)cc2n1CC(=O)c1ccccc1
→ 109	88	85	x
- COc1ccc(N2C(=O)CC(Sc3nc4c(cc3C#N)CCC4)C2=O)cc1 (stereo unspecified)
→ 104	x	x	-22
- CCOC(=O)c1c(NC(=O)COc2ccc(Cl)cc2Cl)sc(C(=O)Nc2ccccc2F)c1C
→ 109	x	x	14
- Cc1ccc2onc(CNC(=O)N3CCN(c4cccc(C)c4C)CC3)c2c1
→ 103	103	89	x
- N#CC1=C(N)OC2=C(C(=O)CCC2)C1CCc1ccccc1 (stereo unspecified)
→ 104	94	86	-17
- CCOc1ccc(-c2cnc(NCc3cccc(Cl)c3)n2C)cc1
→ 110	95	71	-11
- CCOC(=O)c1c(C)oc2ncnc(Nc3ccc(OC)cc3OC)c12
→ 101	116	86	-26
- COc1ccc(C2=NS(=O)(=O)N(C)C(C(=O)N3C(C)CCCC3C)=C2)cc1 (stereo unspecified)
→ 95	89	86	-32
- O=C(CN1C(=O)C2C3C=CC(C3)C2C1=O)N1CCSC1=NCCc1ccccc1 (stereo unspecified)
→ x	94	92	-27
- CCCc1cc(=O)oc2cc(C)cc(OC(=O)c3ccco3)c12
→ 96	39	25	-11
- CCCC(=O)N(Cc1nc2nc(C)cc(C)n2n1)c1ccc(F)cc1
→ 101	x	x	6

Later entries:
Results follow in this order: GIV Gai3 FP	Sa growth 42C	Sa growth 42C second temp	HCMV UL50-53 inh
- COc1ccc(C)cc1NS(=O)(=O)c1ccc2c3c(cccc13)C(=O)N2
→ 108	94	83	-75
- Cc1ccc(C(c2sc3nc(-c4ccco4)nn3c2O)N2CCOCC2)cc1 (stereo unspecified)
→ 101	149	87	x
- N#Cc1c(N2C(=O)CCC2=O)sc2c1CCCC2
→ 99	92	88	-19
- COc1cccc(C2CC(=O)Nc3c2c(=O)nc2c(C)cccn32)c1 (stereo unspecified)
→ 104	94	89	-9
- O=C(c1c[nH]c2ccc(F)cc2c1=O)N1CCOCC1
→ 96	x	x	-17
- O=C(/C=C/c1ccccc1)Nc1ccc(O)cc1
→ x	91	89	-54
- N#CCCn1cc(CO)c(-c2ccc(F)cc2)n1
→ x	100	99	14
- CCOC(=O)C1CCN(C(=O)c2n[nH]c(=O)c3ccccc23)CC1
→ 100	98	84	x
- O=C(CN1C(=O)CSc2cccn2-c2ccccc21)NCCc1c[nH]c2ccccc12
→ 105	x	x	-31
- Cc1nnc(C(=O)Nc2cccc(C(=O)NCc3ccccn3)c2)s1
→ 106	x	x	-16
- CNC(=O)c1c(NC(=O)c2cc(=O)c3ccccc3o2)sc2c1CCC2
→ 96&117	90	87	x
- CCc1ccc(-n2c(=O)c3c(C)c(C(=O)N(C)C)sc3n(Cc3ccccc3C#N)c2=O)cc1
→ 99	99	91	x
- CC(NC(=O)c1cccc2c1C(=O)N(Cc1cccnc1)C2)c1cccs1 (stereo unspecified)
→ 98	82	83	x
- CCOc1cc2oc(=O)c3c(c2cc1Cl)CCC3
→ x	108	89	-21
- CCC(C(=O)Nc1ccccc1)n1nc(-c2ccc(C)c(S(=O)(=O)N3CCCCC3)c2)ccc1=O (stereo unspecified)
→ 98	x	x	-15

The results go on:
SMILES	GIV Gai3 FP	Sa growth 42C	Sa growth 42C second temp	HCMV UL50-53 inh
CCn1c(Cc2ccccc2)nnc1SCC(=O)c1ccc2c(c1)OCO2	x	84	60	-11
CCOc1cccc(CC(=O)N2CCc3c([nH]c4ccccc34)C2c2ccc(F)cc2)c1OCC (stereo unspecified)	98	101	88	x
O=C1NC(c2ccccn2)Nc2sc3c(c21)CCCC3 (stereo unspecified)	95	25	27	x
CC(OC(=O)NC1CCCCC1)c1cc2ccccc2o1 (stereo unspecified)	x	87	98	6
CC1=CS(=O)(=O)CC1Sc1ncn[nH]1 (stereo unspecified)	106	48	51	-2
CCc1ccc(-n2c(C)ccc2C)cc1	x	98	86	-34
COC(=O)C1Cc2[nH]cnc2C(c2ccc(OC)c(OC)c2OC)N1 (stereo unspecified)	103	107	97	0
Cn1cc(P(=S)(N2CCOCC2)N2CCOCC2)cc1P(=S)(N1CCOCC1)N1CCOCC1	x	106	97	12

Continued:
SMILES	GIV Gai3 FP	Sa growth 42C	Sa growth 42C second temp	HCMV UL50-53 inh
COc1ccccc1-c1nc(-c2ccc(C)nc2OC)no1	106	x	x	-3
Cc1ccc(C)c(OCCCC(=O)Nc2ccc(N3CCOCC3)cc2)c1	101	80	72	92*
O=C(NC1CCCc2ccccc21)C1CCN(c2ccc(-c3cccc(F)c3)nn2)CC1 (stereo unspecified)	100	x	x	-13
COc1ccc(OC)c(S(=O)(=O)NC2COc3ccc(Br)cc3C2)c1 (stereo unspecified)	104	x	x	-11
COc1ccc(CNC(=S)NCCO)cc1	100	85	89	-31
Cc1ccc(NC(=O)CN(C)C(=O)CSc2n[nH]c(=O)n2Cc2ccccc2)cc1	x	89	91	-13
COc1ccc(NC(=S)N(CCCN2CCOCC2)Cc2ccccn2)cc1	101	90	87	-19
CC(=O)Nc1ccc2c(CSc3nnc4nc(C)cc(C)n34)cc(=O)oc2c1	x	81	92	-27

Continuation.
SMILES	GIV Gai3 FP	Sa growth 42C	Sa growth 42C second temp	HCMV UL50-53 inh
S=c1[nH]c2ccccc2n1Cc1ccccc1Cl	x	114	93	-11
CCN1C(=O)C(Cc2nc3ccccc3c(=O)n2-c2cccc(C)c2)c2ccccc21 (stereo unspecified)	101	76	82	-39
COc1ccc(NC(=O)C(c2ccccc2)N(C)C(=O)Cc2c[nH]c3ccccc23)cc1 (stereo unspecified)	96	99	97	-14
CCc1ccc(-c2nc(SCC(=O)NC3(C#N)CCCCC3)n[nH]2)cc1	x	81	91	4
CC(=O)Nc1nonc1-n1c(C)ccc1C	100	111	93	-11
CCOC(=O)c1sc2nc(C)nc(Nc3cc(Cl)ccc3OC)c2c1C	112	x	x	4
Cc1ccc(NC(=O)N2CCN(S(=O)(=O)c3cc4c(cc3Cl)NC(=O)C(C)O4)CC2)cc1F (stereo unspecified)	106	x	x	-10
CCc1n[nH]c2c1/C(=N\O)CC(C)(C)C2	104	115	97	-2

Additional compounds:
SMILES	GIV Gai3 FP	Sa growth 42C	Sa growth 42C second temp	HCMV UL50-53 inh
Cc1cccc(OCC(=O)Nc2ccc(-c3nc4ccccc4o3)cc2)c1	117	x	x	-6
CCN(CC(=O)NCc1ccc(F)cc1)C(=O)c1cn(CC)c2nc(C)ccc2c1=O	x	77	80	-7
CCOC(=O)c1oc2ccccc2c1CN1C(=O)c2ccccc2C1=O	x	92	98	-12
O=C(CCN1C(=O)/C(=C/c2ccccc2)SC1=S)Nc1ccc(S(=O)(=O)Nc2nccs2)cc1	103	x	x	-22
CCNC(=S)N(Cc1ccccc1)Cc1nc2ccccc2c(=O)[nH]1	105	107	91	-5
O=C(COc1ncnc2ccccc12)NCC1CCCCC1	x	91	90	-18
O=C(O)CCN=Cc1c(O)c2ccccc2oc1=O	101	70	43	x
CCOC(=O)C1=C(CSc2nc(-c3ccncc3)ccc2C#N)OC(N)=C(C#N)C1c1ccc(OC)cc1 (stereo unspecified)	108	x	x	-45

More results follow.
SMILES	GIV Gai3 FP	Sa growth 42C	Sa growth 42C second temp	HCMV UL50-53 inh
Cc1cccc(OC(=O)CSc2nnc(C)c3ccccc23)c1	105	x	x	-20
CCCCOc1ccc(C2=N/C(=C\c3ccc(OC(C)=O)c(OC)c3)C(=O)O2)cc1	100	x	x	-32
Cc1cccc(Oc2c(C(F)(F)F)oc3cc(OCC(=O)OC(C)C)ccc3c2=O)c1	103	x	x	-17
N#CCCn1nc(-c2ccccc2)cc1C(=O)N/N=C/c1ccncc1	x	103	102	-8
S=C1SCN(CCN2CCOCC2)CN1Cc1ccccc1	101	117	81	x
CCCc1cc(-n2cnc3ccccc32)n2c(nc3ccccc32)c1C#N	91	121	88	x
Cn1c(=O)c2sccc2n2c(CCCC(=O)Nc3ccc(Cl)cc3)nnc12	107	128	90	x
O=S(=O)(NCc1ccccc1Cl)c1ccc2[nH]c3c(c2c1)CCCC3	105	x	x	7
CC1CN(C(=O)COC(=O)c2ccc3c(c2)C(=O)N(c2ccc(Cl)cc2)C3=O)CC(C)O1 (stereo unspecified)	x	99	90	-43

High-throughput results deposited in PubChem BioAssay by ICCB-Longwood Screening Facility, Harvard Medical School.
